Bioassay records as filed in PubChem BioAssay.
MARV entry inh: inhibitors of Marburg virus binding or cell entry; Potency, µM (doses to about 37.8 µM), for inactives: top-dose activity change, negative = inhibition, usual class: inhibitors; Marburg virus pseudotyped entry inhibition, cell reporter; control for the full effect not named in the record; about a third of the inactives were read at about 46 µM; 300,000 tested, 1.8% active; AID 540276; active = well fitted inhibition curve with a large enough effect; inconclusive = small, poorly fitted or top-dose-only effect, or effect the other way; inactive = flat fitted curve, though single readings scatter; tested in HEK293 cells; about a fifth of its hits are not listed in these tables; also: % is scaled to controls: 0 for no effect and ±100 for the full control effect; luciferase read-out
SARS PLP yeast: blocks SARS-CoV papain-like protease in a yeast assay; Potency, µM (titrated, usually from 32.9 µM), for the others: at the top dose activity, positive = growth rescue; S. cerevisiae expressing SARS-CoV PLpro, growth rescue; control for the full effect not named in the record; 330,000 tested, 0.19% active; active means well fitted rising curve with a large enough effect; inconclusive means small, poorly fitted or top-dose-only effect; inactive means no such curve, though single readings can be large or run the other way; also: 0% is about no effect; nearly all actives have a fitted effect of over 55% in size; growth read by luminescence after 48 h
RE007 growth inh: less growth of the S. pombe RE007 Vpr strain; Potency, µM (top dose mostly 92.2 µM), inactives show at the highest dose activity change, negative = less growth; 360,000 tested, 0.21% active; S. pombe RE007 Vpr strain, BacTiter-Glo ATP luminescence, 24 h; control for the full effect not named in the record; active = well fitted falling curve with a large enough effect; inconclusive = small, poorly fitted or top-dose-only effect; inactive = no such curve, though single readings can be large or run the other way;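 also: % is scaled to controls: 0 for no effect and ±100 for the full control effect; nearly all actives have a fitted effect of over 50% in size; the assay follows cell death caused by Vpr and the record does not say whether a fall means rescue or toxicity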
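Fission yeast strain RE007, carrying one chromosomally integrated HIV-1 vpr copy, was seeded at OD 0.01 in PMG+AL medium with 23 nL pinned compound. After 24 h at 30 °C and 99% humidity, viability was read by BacTiter-Glo luminescence.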
Cruzain noTriton: inhibitors of Trypanosoma cruzi cruzain without detergent. P25779. purified cruzain, Z-FR-AMC fluorescence, no detergent. Potency, µM, without a hit: max response, negative = inhibition, usual class: inhibitors. 200,000 tested, 2.3% active;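 also: plate controls were enzyme without inhibitor for no effect and buffer without enzyme for full effect; nearly all actives have a fitted effect of over 40% in size; top concentration of the series not given in the record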
Target sequence (P25779 123-467 limits assumed): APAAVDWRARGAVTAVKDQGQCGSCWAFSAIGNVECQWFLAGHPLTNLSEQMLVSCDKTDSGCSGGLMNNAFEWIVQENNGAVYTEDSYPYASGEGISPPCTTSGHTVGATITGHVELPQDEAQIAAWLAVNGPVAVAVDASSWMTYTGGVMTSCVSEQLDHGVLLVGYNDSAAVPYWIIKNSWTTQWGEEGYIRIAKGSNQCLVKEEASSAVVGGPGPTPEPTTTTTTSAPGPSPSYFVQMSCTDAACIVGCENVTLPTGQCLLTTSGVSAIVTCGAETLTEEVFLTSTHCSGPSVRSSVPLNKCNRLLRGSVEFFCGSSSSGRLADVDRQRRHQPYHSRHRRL
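Purified cruzain at 1.5 nM, pre-incubated 15 min with compound at room temperature in 100 mM sodium acetate pH 5.5, 5 mM DTT, 0.00005% Triton X-100. Reaction started with 2 uM Z-FR-AMC; AMC fluorescence increase over 60 s gives rate.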
LASV entry inh: Lassa virus entry inhibition | AID 540256 | 300,000 tested, 1.2% active | Potency, µM (highest dose often 37.9 µM), for the others: top-dose activity change, negative = inhibition, usual class: inhibitors | Lassa virus pseudotype entry inhibition, cell reporter; control for the full effect not named in the record; active means well fitted inhibition curve with a large enough effect; inconclusive means small, poorly fitted or top-dose-only effect, or effect the other way; inactive means flat fitted curve, though single readings scatter; tested in HEK293 cells; also: % is scaled to controls: 0 for no effect and ±100 for the full control effect; nearly all actives have a fitted effect of over 50% in size; luciferase read-out
2A StopGo: FMDV 2A StopGo reporter, luciferase signal; 410,000 tested, 1.2% active; AID 1159524; Potency, µM (series often up to 57.9 µM), for the others: top-dose signal change, negative = less light; human cells with a luciferase reporter of 2A StopGo recoding; control for the full effect not named in the record; active = well fitted falling curve with a large enough effect; inconclusive = small, poorly fitted or top-dose-only effect; inactive = no such curve, though single readings can be large or run the other way; tested in HEK293T cells; also: % is scaled to controls: 0 for no effect and ±100 for the full control effect; nearly all actives have a fitted effect of over 45% in size; luciferase light after 4 h
Cruzain Triton: blocks cruzain activity in presence of Triton detergent; P25779; purified cruzain, Z-FR-AMC fluorescence, 0.01% Triton; Potency, µM, inactives show max response, negative = inhibition, usual class: inhibitors; 200,000 tested, 0.43% active;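 also: plate controls were neutral wells for no effect and buffer without enzyme for full effect; nearly all actives have a fitted effect of over 40% in size; top concentration of the series not given in the record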
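Steps: dispense cruzain (1.5 nM final) in acetate buffer pH 5.5 with DTT and 0.01% Triton X-100; pin-transfer compounds; incubate 15 min RT; add Z-FR-AMC (2 uM final); read fluorescence every 30 s, using the 60 s intensity change.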
NS1 inh: blocks influenza NS1 protein function; S. cerevisiae slowed by influenza A NS1, growth recovery by OD600; Potency, µM (doses to about 46.1 µM), for inactives: at the highest dose activity, positive = more growth; 270,000 tested, 0.4% active; AID 2326; active means well fitted rising curve with a large enough effect; inconclusive means small, poorly fitted or top-dose-only effect; inactive means no such curve, though single readings can be large or run the other way; also: nearly all actives have a fitted effect of over 50% in size
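Growth recovery, yeast-based: influenza A NS1 expressed in S. cerevisiae causes slow growth, and suppressors are detected by OD600. The parent strain without NS1 is used as positive control.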
* hit, by the source's call; ? = inconclusive; · = not tested or not shown; & = joins results of further samples; [ ] = dose if it differs, or a comment. Unless noted, calls follow the shape of the dose curve; as a rule, active = well fitted curve in the direction sought with a large enough effect; inconclusive = small, poorly fitted or top-dose-only effect, or another doubt; inactive = no such curve, though single readings can be large; an effect the other way counts as inactive or inconclusive. Potency is read from the fitted curve at half-maximal effect.

Results follow in this order: MARV entry inh | SARS PLP yeast | RE007 growth inh | Cruzain noTriton | LASV entry inh | 2A StopGo | Cruzain Triton | NS1 inh
- CCOC(=O)c1ccc(NC(=O)N2CCOc3ccccc32)cc1
  · | · | · | 10µM* | -11%[46.1 µM] | 22% | -3.2% | ·
- CC(C)NC(=O)CSc1ncccc1-c1nc2ccccc2[nH]1
  · | -11% | 2% | · | · | 8% | · | -14%
- CCCc1c(C)[nH]c2ccc(C(=O)O)cc2c1=S
  · | 2% | 12% | · | · | 2% | · | 10%
- CC(=O)c1cccc(NC(=O)c2sc3nc4c(cc3c2N)CCCC4)c1
  ? | · | · | 5% | 6%[46.1 µM] | -2% | -3.3% | ·
- CCSc1nnc(NC(=O)c2cccnc2Cl)s1
  ? | -12% | -15% | 4% | 19% | 55%[activator] | -1.7% | -22%
- O=C(N/N=C/c1cccnc1)c1[nH]ncc1Br
  ? | -1% | -27% | · | · | 50%[activator] | · | 6%
- COc1ccc(-c2c(C#N)c(N)nc3sc(C(=O)c4ccc(C)cc4)c(N)c23)cc1
  -23% | 3% | 25% | ? | -3% | -11% | -3.4% | 3%
- O=C(c1cc2ccccc2o1)c1nc2c(n1O)CCCCC2
  -10%[46.1 µM] | ? | ? | -4% | 18% | 43%[activator] | -7.5% | -42%
- Cc1ccc(OCC(=O)Nc2ccc3c(c2)OC(F)(F)O3)c([N+](=O)[O-])n1
  ? | -24% | -16% | 9% | -4% | ? | -0.8% | -7%
- CC1CCC(NC(=O)C2CCN(c3c4c(nc5ncnn35)CCC4)CC2)CC1 (stereo not given)
  14%[46.1 µM] | 0% | -11% | · | 0% | 0% | · | 5%
- Cc1nc(NC(=O)CCN2C(=O)C3CC=CCC3C2=O)sc1C (stereo not given)
  · | ? | 3% | · | · | 31% | · | 21%
- COC(=O)Nc1cccn(Cc2c(Cl)cccc2Cl)c1=O
  ? | -6% | -17% | -1% | 11% | 8% | 2.5% | 10%
- COc1ccc(Cl)cc1NC(=O)CN(C)C(=O)c1cc2c(s1)CCC(C)C2 (stereo not given)
  ? | 1% | 30% | · | ? | -20% | · | ·
- COc1ccc(N2CCN(C(=O)c3ccc(COc4ccc5c(C)cc(=O)oc5c4)cc3)CC2)cc1
  ? | 0% | -15% | 9% | -9%&6% | -6% | -2.8% | 11%
- COc1cccc(CSc2nc(-c3ccccc3F)nc3c2Cc2c(CO)cnc(C)c2O3)c1
  · | · | · | 6% | 12%[46.1 µM] | 0% | -0.8% | ·
- O=C(Nc1ccccc1F)Nc1cc(Cl)ccc1-n1cncn1
  -16%[46.1 µM] | -1% | 12% | · | -13% | 22% | · | 6%
- COc1ccc(Cc2nc3ccc(C(=O)N4CCC[C@H]4CO)cc3o2)cc1
  9% | -2% | ? | · | ? | -1% | · | -2%
- CC(CCc1ccccc1)NC(C)C(O)c1ccc(O)cc1 (stereo not given)
  ? | 1% | -11%[18.4 µM] | 4%&2%&1% | -27%&-14% | -1%&2% | 2.2%&1.2%&7.3% | -5%&-2%
- Cc1ccc2c(C)c(C(=O)N3CCC(c4nc5ccccc5s4)CC3)oc2c1C
  4%[46.1 µM] | · | · | 3% | 1%[46.1 µM] | ? | -7.4% | ·
- O=C(Nc1sc2c(c1C(=O)c1ccccc1)CCCC2)c1cccnc1
  5% | -3% | -14% | 18% | 7% | -25% | -5.8% | 0%
- CN(C)CCCN1C(=O)c2oc3ccccc3c(=O)c2C1c1cccs1 (stereo not given)
  10%&0% | 0% | -25% | -4% | 16% | 21% | 0.7% | -38%
- CCOc1cccc(CN2CCC(Oc3ccc(C(=O)NCc4ccccn4)cc3)CC2)c1
  · | 5% | 1% | · | · | -2% | · | -3%
- NS(=O)(=O)c1ccc(CCNC(=O)C(=O)NCC2OCCN2S(=O)(=O)c2cc(F)ccc2F)cc1 (stereo not given)
  · | 0% | -1% | · | · | -17% | · | 14%
- CCN(CC)CCCN=Cc1c(O)n(CCc2ccc(OC)c(OC)c2)c(=O)[nH]c1=O
  6% | -3% | 9% | -2% | 9% | -21% | 0.4% | -14%
- c1cncc(CNc2ncnc3sc4c(c23)CCCC4)c1
  ? | -2% | -6% | · | -20% | -23% | · | ·
- NS(=O)(=O)c1ccc(CCNC(=O)CN2C(=O)NC(c3ccccc3)(c3ccccc3)C2=O)cc1
  7% | -6% | 31% | · | 2% | -12% | · | ·
- COCC(=O)Nc1nnc(Cc2ccc(OC)cc2)s1
  23% | -11% | 28% | -3% | ? | 29% | 2.4% | -5%
- COc1ccc(N(CC(=O)NCc2ccco2)S(=O)(=O)c2c(C)nn(C)c2C)cc1
  4% | -9% | -13% | -2% | · | -22% | 1.8% | ?
- COC(=O)COc1cccc(NC(=O)c2cccc(C)c2)c1
  0%[46.1 µM] | 0% | -11% | · | 10%[46.1 µM] | 20% | · | -38%
- Cc1ccc(O)c([C@H](CCN(C(C)C)C(C)C)c2ccccc2)c1
  · | 19% | -10%&10%[18.4 µM] | -5% | · | -14%&-14% | -1.8% | 15%
- CCOCC(=O)Nc1nc(-c2ccccc2)c(CC)s1
  5% | -2% | ? | 8% | -24% | 2% | -3.9% | -15%
- C/C(=N\NC(=O)C1CC1)c1ccccc1Br
  · | 6% | -6% | · | · | 0% | · | 20%
- Cc1ccc(CN2C(=O)CSC2c2ccc(F)cc2)cc1 (stereo not given)
  · | 3% | 5% | · | · | -7% | · | -3%
- CCc1cc2c(=O)oc(-c3ccc(Br)cc3)nc2s1
  · | -2% | -13% | · | · | 17% | · | 5%
- COc1ccc(CCNC(=O)c2cnc3sc(N4CCOCC4)nn3c2=O)cc1OC
  · | · | · | -10% | ? | 0% | 2.1% | ·
- Cc1nn(-c2ccccc2)c(N2CCCC2)c1/C=N/Nc1ccc(S(=O)(=O)Nc2ccccc2)cc1[N+](=O)[O-]
  ? | 1% | -7% | ? | 0% | 30% | 5.1% | 18%
- CC1(C)C(C(=O)N2CCN(C(=O)c3ccccc3)CC2)C1(C)C
  ? | 9% | -4% | · | 11%[46.1 µM] | -30% | · | -19%
- CN1C(=O)CSc2ccc(NC(=O)NCc3cccnc3)cc21
  -16% | 4% | -1% | -4% | 0% | · | -0.2% | -10%
- CC(=O)C1=C(O)C(=O)N(c2nccs2)C1c1ccc(Br)cc1 (stereo not given)
  -4% | 7% | 9% | -4% | 1% | ? | -3.4% | 9%
- O=C(Nc1cccc(-c2nc3ccccc3s2)c1)C1=COCCO1
  19% | -20% | ? | 18% | ? | 15% | -8.8% | 2%
- O=C(NCc1ccccc1Cl)c1cc2cccc3c2n1CCS3
  · | · | · | ? | ? | -8% | -3.1% | ·
- CCn1c(=S)sc2c(=O)[nH]c(SCC(=O)Nc3cc(OC)ccc3OC)nc21
  · | 2% | 8% | · | · | -3% | · | 11%
- Cn1c(=O)n(Cc2ccccc2)c(=O)c2c1nc(NCC1CCCO1)n2Cc1ccccc1 (stereo not given)
  1% | 1% | 5% | ? | -27% | -19% | -6.1% | -2%
- O=C(NCCO)C1(c2ccccc2)CCCC1
  6%&6%[46.1 µM] | 0% | 10% | -9% | 4% | -10% | 3.7% | 13%
- O=c1c2ccccc2c2ccccc2c(=O)n1Cc1ccco1
  -14%[46.1 µM] | -1% | ? | -11% | 4% | -4% | -7.0% | -40%
- Cc1ccc(C)c(N2N=C(C(=O)Nc3ccc(N4CCOCC4)cc3)CCC2=O)c1
  30%[46.1 µM] | -18% | -4% | · | -12% | 11% | · | ·
- COc1ccc(CNC(=O)CSc2ncc(S(=O)(=O)c3ccc(C)c(Cl)c3)c(=O)[nH]2)cc1
  · | · | · | ? | 21%[46.1 µM] | -5% | -7.4% | ·
- COC(=O)c1c(NC(=O)C(C)(C)C)sc2c1CCN(Cc1ccccc1)C2
  · | 6% | -1% | · | · | ? | · | -23%
- Cc1nn(-c2ccccc2)c2c1CC(=O)Nc1ccccc1-2
  ? | · | 1% | · | ? | -8% | · | ·
- O=C(CN1C(=O)CCC1=O)NC(=O)NC1CCCC1
  24% | 1% | -18% | · | ? | 5% | · | 3%
- CCCCC1CCC(C(=O)N2CC(=O)Nc3ccc(C)cc3C2c2ccc(F)cc2)CC1 (stereo not given)
  ? | · | · | -21% | ? | -26% | -3.1% | ·
- CC1CCN(C2CC(=O)N(c3ccc(Br)cc3Br)C2=O)CC1 (stereo not given)
  17%&17% | -5% | 40µM* | · | -6% | -22% | · | -88%
- Cc1ccc2nc(C)c(C(=O)N/N=C/c3cccc([N+](=O)[O-])c3)cc2c1
  -15% | 5% | -26% | 13% | -17% | -13% | -5.0% | -1%
- CCc1ccc[n+](-c2nc3ccccc3nc2C(=C=[N-])C#N)c1
  -1% | -2% | -5% | · | · | 3% | · | 3%
- O=C(c1c[nH]c2ccccc12)N1CCOCC1
  -24%[46.1 µM] | -1% | 6% | · | -11% | 9% | · | ·
- COC(=O)c1cc2oc(C)cc2n1CC(=O)Nc1cc(C)cc(C)c1
  -8% | -1% | 4% | -1% | -5% | · | 0.8% | -5%
- CCC(C(=O)Nc1cccc(-c2nc3cccnc3s2)c1C)c1ccccc1 (stereo not given)
  -12%[46.1 µM] | · | · | 11% | 31%[46.1 µM] | -3% | -1.7% | ·
- O=C(CN1CCOCCOCCOCCOCC1)Nc1ccccc1
  ? | -5% | 4% | -2% | 0% | 57%[activator] | 0.3% | -2%
- C=C(C)C1CCC(C)=C1CC(C)(C)/C=N\n1cnnc1 (stereo not given)
  ? | -2% | -3% | 2% | 0% | · | -14% | -93%
- CC1=C2CCC3C(CCC4=CC(=O)CCC43C)C2CC1 (stereo not given)
  ? | · | 5% | · | -23%[46.1 µM] | -12% | · | ·
- Cc1ccc(C)c(OCC(=O)Nc2ccc(S(=O)(=O)Nc3onc(C)c3C)cc2)c1
  -12%[46.1 µM] | -5% | 2% | · | 18%[46.1 µM] | 27% | · | -10%
- Cc1cnc(=O)[nH]c1SCc1ccccc1F
  · | 14% | 5% | · | · | -15% | · | 17%
